Screening data from PubChem BioAssay.
RGS16-Gao: modulators of RGS16 binding to Galphao, primary screen, biochemical, human proteins, multiplexed bead flow cytometry. Regulator of G-protein signaling 16 (Homo sapiens) + Guanine nucleotide-binding protein …. bead-based flow cytometry RGS16-Galphao binding, fluorescence; actives lie on both sides. binding response (% of control), % at 10 µM. actives 0.38% (n = 220,000). AID 1441, 2008;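 active = below 25% or above 175%, edge rows of some plates excepted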;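 also: Galphao activated by GDP with aluminum fluoride before binding; 100% = wells without compound and 0% = beads without RGS; some results beyond the cut were filed as inactive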
GALR2 ag: GALR2 receptor agonists, primary screen, cell-based; actives 0.48% (n = 140,000); GALR2-expressing cells, agonist activation read-out; AID 803, 2007; activation, %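 (tested at 5 µM)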;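 active = above mean plus 3 SD of all compounds, about 5% in these data, not always enough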;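 also: 0% = vehicle buffer wells and 100% = reference agonist at full effect; tested in CHO reporter cells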
PKD1 inh: inhibitors of human PKD1 kinase, biochemical, fluorescence polarization; PKD1 kinase fluorescence polarization assay; Serine/threonine-protein kinase D1 (Homo sapiens), Q15139; AID 797, 2007; inhibition, %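 (about 10 µM by stock and volumes)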; actives 0.056% (n = 200,000);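 active = inhibition of 50% or more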;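 also: controls were vehicle for no effect and a reference inhibitor for full effect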
Target sequence (Q15139 whole entry, looked up): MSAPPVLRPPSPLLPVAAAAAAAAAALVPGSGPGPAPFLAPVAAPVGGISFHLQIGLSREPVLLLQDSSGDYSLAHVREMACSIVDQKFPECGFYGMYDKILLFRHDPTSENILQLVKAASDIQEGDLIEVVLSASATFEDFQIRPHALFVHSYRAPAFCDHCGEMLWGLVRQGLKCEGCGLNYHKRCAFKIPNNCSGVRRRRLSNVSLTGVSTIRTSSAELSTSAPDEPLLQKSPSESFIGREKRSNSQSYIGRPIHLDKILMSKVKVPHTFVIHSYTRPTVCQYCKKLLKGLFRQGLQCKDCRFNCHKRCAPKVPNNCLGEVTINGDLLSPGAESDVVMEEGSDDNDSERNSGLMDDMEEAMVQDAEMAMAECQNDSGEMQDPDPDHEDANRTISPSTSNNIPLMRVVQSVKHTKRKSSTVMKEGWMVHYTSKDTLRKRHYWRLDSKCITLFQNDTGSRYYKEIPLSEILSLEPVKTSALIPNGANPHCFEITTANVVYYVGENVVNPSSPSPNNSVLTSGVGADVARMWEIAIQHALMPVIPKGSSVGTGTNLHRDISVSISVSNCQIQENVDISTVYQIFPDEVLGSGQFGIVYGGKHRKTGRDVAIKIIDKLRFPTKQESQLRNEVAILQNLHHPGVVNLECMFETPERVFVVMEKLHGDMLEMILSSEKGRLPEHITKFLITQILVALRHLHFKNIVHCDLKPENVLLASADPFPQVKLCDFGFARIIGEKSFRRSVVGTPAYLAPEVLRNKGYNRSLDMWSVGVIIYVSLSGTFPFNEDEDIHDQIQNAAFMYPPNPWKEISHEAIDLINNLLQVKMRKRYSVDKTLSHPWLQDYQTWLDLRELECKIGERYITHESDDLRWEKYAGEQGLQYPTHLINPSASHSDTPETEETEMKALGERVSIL
HSV augment: enhancers of HSV replication in host cells, fold increase, host cell viability. maximum fold increase. actives 0.005% (n = 220,000). HSV replication augmentation in cells;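 active = peak rise of 1.5-fold or more in the series; inconclusive = self-fluorescent or not available for retest; tested in PC3 cells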;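 also: first round at 10 µM; read as green reporter fluorescence; hits show the peak of a series up to 25 µM; 1 = signal of infected wells without compound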
Insulin prom inh: inhibitors of insulin promoter-driven GFP, primary screen, imaging, TRM-6 cells (human fetal islet line), eGFP reporter, cell count. reporter expression induced with tamoxifen. inhibition, % at 2 µM. actives 0.9% (n = 130,000). AID 1273, 2008;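 active = inhibition above the mean plus 3 SD, with well images judged a real hit on visual review, cut at about 60% in these data, passing the limit was not always enough; inconclusive = inhibition over the cutoff but images rejected on review; inactive = inhibition not above the cutoff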
Insulin prom inh cell count: further read-out of Insulin prom inh, marked with its call; normalized cell count, %; measured here: cell count, toxicity; reference of the scale not given here;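 cells exposed to compound for 48 h; stained nuclei by imaging scaled within each plate; lower means fewer cells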
HSV augment primary fold: recorded beside HSV augment, whose call it bears; fold increase; compound at 10 µM; measured here: primary screen fold increase 10 uM; tested in PC3 cells;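 GFP signal in the first replicate; 1 = infected wells without compound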
Active calls of the source: *; i = inactive; ? = inconclusive; / = not tested or not shown. Compounds were not picked by outcome; any-hit rate near 1.3%.

SMILES	RGS16-Gao	GALR2 ag	PKD1 inh	HSV augment	HSV augment primary fold	Insulin prom inh	Insulin prom inh cell count
CCOc1nc(N(C)C)nc(-n2nnc(C(C)=O)c2C)n1	102	-0.3	0	i	1.2	-21	98
COc1ccc(CC(=O)Nc2cccc(C(=O)Nc3ccccc3C(=O)O)c2)cc1OC	105	-0.4	2	i	0.9	10	102
Cc1ccc(C)c(C(=O)CC2(O)C(=O)N(C)c3ccccc32)c1 (stereo not given)	99	-1.3	0	i	0.76	61	70
CCCn1nnnc1NC(=O)COc1ccc(Cl)c(C)c1	153	-2.5	-4	i	1	-3	74
Cc1ccc(N=C2NC(=O)c3cc([N+](=O)[O-])ccc32)cc1	97	-1.4	-8	i	0.97	/	/
CCOC(=O)c1cccc(-n2c(C)cc(C=O)c2C)c1	102	-0.1	10	i	0.95	-26	128
O=C(NCc1ccc(Cl)cc1)c1cnccn1	97	-2.0	-9	i	0.91	21	206
CCOC(=O)c1[nH]c2cc3c(cc2c1NC(=O)CN1CC(C)CC(C)C1)OCO3 (stereo not given)	102	-3.9	-5	/	/	43	101
CCOc1ccc(NS(=O)(=O)c2ccc(OCC(=O)N3CCCC3)cc2)cc1	102	-2.9	-7	i	1	-15	234
COc1cccc2c1C(=O)c1c(O)c3c(c(O)c1C2=O)C[C@@](O)(C(C)=O)C[C@@H]3O[C@H]1C[C@H](N)[C@H](O)[C@H](C)O1	142	-2.0	35	/	/	-355	13
O=C1CN(C(=O)CCCc2c[nH]c3ccccc23)c2ccccc2N1	100	0.0	14	i	0.92	-52	73
COc1ccc(Nc2ncc(C(=O)N3CCN(Cc4ccccc4)CC3)c3ccccc23)cc1	106	-0.8	-6	i	0.79	-37	102
COC(=O)CN(n1cnnc1)S(=O)(=O)c1ccc(C)cc1	97	-3.8	-4	i	0.96	-46	125
CC1=C(C)CC(C(=O)N2CCN(Cc3ccccc3)CC2)C(C(=O)O)C1 (stereo not given)	102	-6.8	-9	i	0.77	26	70
O=C(c1cc(-n2cnnc2)ccc1Cl)N1CCN(c2nc(-c3ccccc3)cs2)CC1	100	-0.8	2	/	/	15	84
CCn1nc(C)c(NS(=O)(=O)c2ccccc2)c1C	96	-1.6	7	i	0.94	14	115
COc1cccc(NC(=O)C(=O)NCCCn2ccnc2)c1	99	/	0	i	1	-65	182
CCOC(=O)CSC1=NC(=O)CS1	108	-1.9	-4	i	1	-7	85
COC(=O)CCCC(=O)Nc1ccc(Cl)c(Cl)c1	101	-1.3	2	i	0.95	62	72
O=C(CCCN1C(=O)/C(=C/c2ccccc2)SC1=S)Nc1cccc(O)c1	100	/	-2	i	0.64	0	77
CCN1C(=O)C2(C(C#N)=C(N)Oc3n[nH]c(C(C)C)c32)c2ccccc21 (stereo not given)	106	-0.7	4	i	0.96	-78	66
Nc1nc(CSc2nc3ccccc3s2)nc(N2CCOCC2)n1	106	/	-4	i	1	/	/
O=C(O)CCN1C(=O)/C(=C\c2ccc(-c3nc4ccccc4s3)o2)SC1=S	98	1.2	6	?	/	11	34
Cc1ccc2c(c1)N(CC(=O)NCc1ccco1)C(=O)C(C(C)C)O2 (stereo not given)	96	/	/	i	0.95	/	/
Cc1ccc(Cn2ccc(NC(=O)c3cc(-c4ccc(Cl)cc4)on3)n2)cc1	99	-3.5	-15	i	0.89	/	/
O=C1/C(=C\c2ccco2)SC(=S)N1c1ccc(O)cc1	95	1.2	-10	i	1.2	-50	82
CCOc1ccc(NS(=O)(=O)c2ccc3[nH]c(=O)c(=O)[nH]c3c2)cc1	103	/	2	i	1	/	/
c1cncc(-c2csc(NCc3ccco3)n2)c1	111	0.6	2	i	0.86	-52	156
CCOC(=O)c1c(-c2cccc([N+](=O)[O-])c2)csc1NC(=O)CCCOc1ccccc1OC	/	-1.1	-9	i	0.88	/	/
O=C(Nc1cccc(C(F)(F)F)c1)N1CCN(C(=O)Nc2cccc(C(F)(F)F)c2)CC1	99	-0.8	3	i	1.1	-44	53
O=C(NC(=S)NCCc1ccc(Cl)cc1)c1ccco1	108	-0.3	20	i	0.93	-77	109
Cc1ccc(S(=O)(=O)N2CCCCC2)cc1NC(=S)NC(=O)c1ccco1	88	/	/	i	1	/	/
Cc1noc(C)c1S(=O)(=O)N1CCCC(C(=O)Nc2nccs2)C1 (stereo not given)	98	-1.5	0	i	1	/	/
CCCc1ccc(/C=C2\C(=O)c3ccccc3C(O)=C2C(=O)OCC)cc1	84	-2.9	-11	?	/	-4	61
COc1ccc(NS(=O)(=O)c2ccc(NC(=O)c3ccc(N(C)S(C)(=O)=O)cc3)cc2)cc1	71	-1.9	-1	i	1	53	36
O=C(/C=C/c1cccc([N+](=O)[O-])c1)N(c1ccccn1)c1ccccn1	112	/	/	i	0.91	/	/
O=C(OCC(=O)c1ccccc1Br)c1ccncc1	98	/	-2	i	0.86	/	/
CCOC(=O)C1(Cc2cccc(F)c2)CCN(Cc2nc(CC)[nH]c2C)CC1	108	/	-7	i	1.1	/	/
COC(=O)C1(c2ccccc2)NC(c2cccs2)C2C(=O)N(C)C(=O)C21 (stereo not given)	103	-0.9	-5	i	1.1	-26	117
CCOc1ccc(Br)cc1/C=N/NC(=O)c1ccncc1	93	-1.7	-7	i	0.97	-50	124
Cc1nc2ccccc2c(=O)n1/N=C/c1c(O)ccc2ccccc12	105	/	-3	i	0.75	/	/
Cn1c(COc2ccccc2)nnc1SCC(=O)NCc1ccccc1	94	0.8	0	i	0.81	/	/
O=C(COc1ccccc1/C=C\c1nc(O)c([N+](=O)[O-])c(=O)[nH]1)Nc1ccccc1	99	/	5	i	0.94	/	/
CCCc1nc2oc3c(NCCN(C)C)ncnc3c2c2c1CCCC2	232	0.3	-1	i	0.71	/	/
N#C/C(C(=O)c1ccccc1)=C1/CCCN1	106	-4.3	2	i	0.91	/	/
Cc1ccc(C(=O)NNC(=O)C2CCN(c3nc(C)cc(C)n3)CC2)cc1	103	-1.4	-6	i	0.76	10	43
COc1ccc(NC(=O)c2cc(C)cc(C)c2)cc1[N+](=O)[O-]	99	/	-6	i	0.98	/	/
CC(C)N1CCN(Cc2cn[nH]c2C2CCCCC2)CC1CCO (stereo not given)	104	/	4	i	1.1	/	/
CCOC(=O)C1(S(=O)(=O)c2ccccc2)CCN(Cc2ccc(Cl)cc2)CC1	107	-1.1	-5	i	0.81	/	/
CO/N=C/NC(=O)c1c(OC)ccnc1Oc1ccc(Cl)cc1	101	-2.2	-6	i	0.83	19	92

2 compounds from above, limited to HSV augment.
molecule	HSV augment
Cc1ccc(N=C2NC(=O)c3cc([N+](=O)[O-])ccc32)cc1	i
CCOC(=O)c1cccc(-n2c(C)cc(C=O)c2C)c1	i

Whole records from above.
COC(=O)CN(n1cnnc1)S(=O)(=O)c1ccc(C)cc1 in the list: RGS16-Gao: 97; GALR2 ag: -3.8; PKD1 inh: -4; HSV augment: i; HSV augment primary fold: 0.96; Insulin prom inh: -46; Insulin prom inh cell count: 125
Nc1nc(CSc2nc3ccccc3s2)nc(N2CCOCC2)n1 in the list: RGS16-Gao: 106; GALR2 ag: /; PKD1 inh: -4; HSV augment: i; HSV augment primary fold: 1; Insulin prom inh: /; Insulin prom inh cell count: /
N#C/C(C(=O)c1ccccc1)=C1/CCCN1 in the list: RGS16-Gao: 106; GALR2 ag: -4.3; PKD1 inh: 2; HSV augment: i; HSV augment primary fold: 0.91; Insulin prom inh: /; Insulin prom inh cell count: /

Two entries picked at random from the list so far, as already listed:
SMILES	RGS16-Gao	GALR2 ag	PKD1 inh	HSV augment	HSV augment primary fold	Insulin prom inh	Insulin prom inh cell count
CC(C)N1CCN(Cc2cn[nH]c2C2CCCCC2)CC1CCO (stereo not given)	104	/	4	i	1.1	/	/
Cc1nc2ccccc2c(=O)n1/N=C/c1c(O)ccc2ccccc12	105	/	-3	i	0.75	/	/

Next part:
SMILES	RGS16-Gao	GALR2 ag	PKD1 inh	HSV augment	HSV augment primary fold	Insulin prom inh	Insulin prom inh cell count
Cc1cc(C)n(-c2nc3ccccc3[nH]c2=O)n1	106	1.1	3	i	1	29	149
CNCC(=O)Nc1ccc(Cl)c(C(F)(F)F)c1	107	/	-2	i	1	0	90
O=C(c1ccc(CN2CCc3ccccc3C2)cc1)N1CCc2ccccc2C1	102	-1.3	9	/	/	/	/
O=C(CN1C(=O)NC2(CCCC2)C1=O)N1CCN(C(=O)c2ccco2)CC1	104	-0.6	4	i	0.98	/	/
COCCN(C(=O)c1ccco1)c1nnc(-c2ccc(F)cc2)s1	105	/	3	i	0.97	10	78
Cc1ccc(CNC(=O)C2CCCN2C(=O)NCc2ccccc2)cc1 (stereo not given)	105	-0.8	-6	i	0.96	/	/
COc1ccc(CC(=O)OCc2nnc(-c3ccccc3)o2)cc1	100	/	1	i	1	17	182
CCOc1cc(C)c(S(=O)(=O)NC2CC(C)(C)NC(C)(C)C2)cc1C	97	/	-7	i	0.86	8	112
Clc1ccccc1-c1nnc(-c2cccs2)o1	101	/	-2	i	0.98	0	141
COc1ccc(C(=O)C(CCCCC(CN(C)C)C(=O)c2ccc(OC)cc2)CN(C)C)cc1 (stereo not given)	91	-2.7	1	/	/	/	/
O=C(NCc1ccco1)C(c1ccco1)N(CCc1ccccc1)C(=O)Cn1nnc2ccccc21 (stereo not given)	99	0.9	-4	i	0.86	-85	127
CCCS(=O)(=O)N1CCN(C(=O)COc2ccccc2)CC1	99	-1.8	-3	i	0.88	-7	110
CC1(C)Oc2ccc3ccc(=O)oc3c2/C(=C/Nc2cccc(O)c2)C1=O	101	/	-2	i	0.83	58	187
CC(=O)Nc1ccc(S(=O)(=O)NCc2ccc(C(=O)NC(C)c3ccccc3)cc2)cc1 (stereo not given)	70	-2.9	-1	i	0.96	-7	90
O=C(O)CCC(=O)NNC(=O)c1cccc(Br)c1	100	-0.4	-9	i	0.91	-24	165
COc1ccc(Cl)cc1-c1n[nH]c(=S)o1	93	-2.6	-9	i	0.97	70	144
Cc1nn(-c2ccccc2)c(Cl)c1CN(C(=O)CCl)c1cccc2ccccc12	71	0.0	3	i	0.7	i	2
Cc1cc(C)nc(NC(N)=NC(C)c2ccccc2)n1 (stereo not given)	100	/	-11	i	0.85	/	/
COCCNC(=O)C(=O)N/N=C(\C)CC(=O)Nc1cccnc1	105	/	5	i	0.96	/	/
CCOc1ccc(NC(=O)Cn2nnc(-c3ccccc3NC(=O)CC)n2)cc1	112	-2.0	-13	i	0.91	/	/
COC(=O)c1sccc1Oc1ccc(Cl)cc1N1C(=O)CCC1=O	100	/	/	i	0.97	/	/
COc1ccc(-n2ncc3c(SCC(=O)N4CCN(c5ccccc5OC)CC4)ncnc32)cc1	108	-4.7	-8	i	0.8	-52	138
CCN(CC)CCCNC(CC(=O)Nc1cccc([N+](=O)[O-])c1)C(=O)O (stereo not given)	104	-0.4	1	i	0.88	-75	140
Cc1cc(C(=O)N2CCCC(CCC(=O)N3CCN(c4ccccn4)CC3)C2)c(C)o1 (stereo not given)	112	/	-5	i	0.93	/	/
O=C(N[C@@H](Cc1ccccc1)C(=O)OCc1ccccc1)c1nc[nH]c1C(=O)N1CCc2ccccc2C1	106	/	/	?	/	/	/
CCC(=O)Nc1ccc2c(c1)nc(CCN1CCN(C)CC1)n2C	102	-1.5	11	i	0.97	/	/
COc1ccccc1CN1CCN(Cc2nc(-c3ccccc3)no2)CC1	167	/	-4	i	0.97	/	/
CCn1c(=O)n(CC(=O)NC2CCCC(C)C2C)c(=O)c2ccccc21 (stereo not given)	178	-4.8	-9	i	0.84	40	69
O=C(COC(=O)c1cccc(NS(=O)(=O)c2ccc(F)c(F)c2)c1)NC(=O)NC1CCCCC1	93	-0.6	-9	i	0.95	-3	68

Part of the list above, bar-delimited:
SMILES | RGS16-Gao | GALR2 ag | PKD1 inh | HSV augment | HSV augment primary fold | Insulin prom inh | Insulin prom inh cell count
CCn1c(=O)n(CC(=O)NC2CCCC(C)C2C)c(=O)c2ccccc21 (stereo not given) | 178 | -4.8 | -9 | i | 0.84 | 40 | 69
Cc1cc(C(=O)N2CCCC(CCC(=O)N3CCN(c4ccccn4)CC3)C2)c(C)o1 (stereo not given) | 112 | / | -5 | i | 0.93 | / | /
